# miR-21 FLuc: miR-21 reporter, rising signal. 340,000 tested, under 10 active. Potency, µM (titrated, usually from 38.3 µM), inactives show top-dose reporter change, positive = more light. HeLa miR-21 FLuc reporter, luciferase, 48 h; active = well fitted rising curve with a large enough effect; inconclusive = small, poorly fitted or top-dose-only effect; inactive = no such curve, though single readings can be large or run the other way;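 note: % of control where 0% means no effect; miR-21 action dims this reporter so a rising signal means less miR-21 action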
#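 HeLa cells stably expressing CMV-driven firefly luciferase with a downstream miR-21 binding sequence, endogenously expressing miR-21, were treated with titrations (up to about 40uM final) for 48 hours at 37 degree Celsius. Luciferase luminescence was read after lysis.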
# * hit, by the source's call; ? = inconclusive.
SMILES,miR-21 FLuc
CCc1ccc(NC(=O)CN2C(=O)CSc3ccc(S(=O)(=O)N(C)C)cc32)cc1,-14%
COc1ccc(C(=O)Nc2ccc(OCc3cc(=O)n4ccccc4n3)cc2)cc1,-9%
COc1ccc(OC)c(CNC(=O)Cn2nc(C)c3c(C)n(-c4ccccc4)nc3c2=O)c1,3%
Cc1ccc(NC(=O)C(Cc2ccccc2)NS(=O)(=O)c2ccc3c(c2)oc(=O)n3C)c(Cl)c1 (centres undefined),2%
CC(C)(C)c1ccc(OCC(=O)NC(Cc2c[nH]c3ccccc23)C(=O)O)cc1 (centres undefined),0%
CC(=O)c1ccc(Nc2cc(C)nc3nc(Cc4ccccc4)nn23)cc1,7%
Cc1oc(C)c2c(=O)cc(-c3ccc4c(c3)OCO4)cc(OC(=O)c3ccccc3Cl)c12,1%
Cc1nnc(SCC(=O)NCc2ccccc2F)c2nn(-c3ccc(Cl)cc3)c(C)c12,25%
COc1cccc(-n2c(=O)c3sccc3n(Cc3cc(=O)n4cc(Cl)ccc4n3)c2=O)c1,-17%
Cc1cccc(NS(=O)(=O)c2ccc3c(c2)C(C)(C)C(=O)N3C)c1,5%
CCOc1ccc(C(=O)OCc2cc(=O)n3nc(C(C)C)sc3n2)cc1,3%
COc1cccc(Cn2nc(SC)c(S(=O)(=O)c3ccccc3)c2N(C(C)=O)C(C)=O)c1,4%
Cc1ccc(CNC(=O)CN2C(=O)C3CCCCN3c3ccc(C(=O)N(C)C)cc32)cc1 (centres undefined),-1%
CCOc1ccc(CC(=O)Nc2c(C(=O)c3ccccc3)oc3ccc(OC)cc23)cc1OCC,0%
COc1ccc(NC(=O)CSc2oc(-c3ccco3)nc2S(=O)(=O)c2ccc(Br)cc2)c(OC)c1,15%
CCn1c(=N)c(C(=O)NC2CCCC2)cc2c(=O)n3ccccc3nc21,-3%
Cc1ccc(C(C)C)c(OCCSc2nc(-c3ccccc3F)nc3cc(=O)[nH]n23)c1,-24%
CC(C)CSc1oc(-c2ccco2)nc1S(=O)(=O)c1ccc(Br)cc1,7%
O=C(CCS(=O)(=O)c1ccc2c(c1)NC(=O)CO2)Nc1cccc(C(F)(F)F)c1,-8%
O=C(c1ccccc1Br)N(Cc1ccccc1F)C1CCS(=O)(=O)C1 (centres undefined),0%
CN(C)c1ccc(CNC(=O)C2CCN(c3nnc(-n4cccc4)s3)CC2)cc1,2%
C=Cc1ccc(Cn2c(C)c(CNCCc3ccccc3C)c(C(=O)O)c2C)cc1,-5%
COc1cccc(NC(=O)Cn2c(=O)n(Cc3ccc(C(=O)NCc4ccc(C)cc4)cc3)c(=O)c3ccccc32)c1,-3%
Cc1cc(N2CCN(c3ccccc3)CC2)n2cnnc2n1,18%
COc1ccc(C2=C(C)C(=O)N(Cc3ccc(C(=O)NCc4ccc(C)cc4)cc3)S2(=O)=O)cc1,0%

# (continued)
SMILES,miR-21 FLuc
CCOc1ccccc1NC(=O)c1cc(=O)c2ccc(C)cc2o1,0%
CCc1ccc(C2c3c(n[nH]c3C)C(=O)N2c2ccc(C)cc2)cc1 (centres undefined),1%
COc1ccc(-c2cc(OC(=O)c3cccc(Cl)c3)c3c(C)oc(C)c3c(=O)c2)cc1OC,4%
Cc1ccc(OC(=O)CSc2nnc(-c3cccs3)o2)cc1C,7%
COc1cccc(NC(=O)c2sc3nc(C)c(C(=O)Nc4ccc(C)cc4C)c(-c4cccs4)c3c2N)c1,-16%
O=C(NCc1ccc(F)cc1)c1cnc(N2CCCCC2)c2ccccc12,0%
CCC(C(=O)NCc1cccc(Br)c1)n1nc(C)c2c(C)n(-c3ccccc3)nc2c1=O (centres undefined),20%
COc1cccc(NC(=O)/C(C#N)=C/c2ccc(-c3ccc(C)cc3)o2)c1,4%
CCn1c(=O)cc(SCC(=O)NCCc2ccc(OC)cc2OC)c2ccccc21,-2%
CCCCC(=O)Nc1cccc(-c2nc3ccccc3s2)c1,-29%
CC1Cc2ccccc2N1C(=O)CSc1nnc(-c2cccc(Cl)c2)o1 (centres undefined),-8%
CCCS(=O)(=O)N1CC(=O)N(c2cccc(F)c2)C(C)(C(=O)NC2CCCCCC2)C1 (centres undefined),-10%
Cc1cccc(Nc2nc(C)nc(N)c2S(=O)(=O)c2ccccc2)c1,-10%
Cc1c(C(=O)N(C)C)sc2c1c(=O)n(-c1ccc(F)cc1)c(=O)n2Cc1ccccc1C#N,-2%
CCOc1ccc(CCNC(=O)C2CCN(C(=O)c3cc4sccc4n3CC)CC2)cc1OCC,?
Fc1ccccc1N1CCN(c2ncc3c(n2)CCN(Cc2ccc(Br)s2)C3)CC1,2%
CSc1ncc(Cl)c(C(=O)Nc2c(C(=O)c3ccc(C)cc3)oc3ccccc23)n1,0%
COc1cc2nc(NCCc3ccccc3)n3nc(-c4cccnc4)nc3c2cc1OC,3%
Cc1nc2nc(NCc3ccc(Cl)cc3)[nH]n2c(=O)c1Cc1ccccc1,-1%
Cc1ccc(NC(=O)CSc2nc(C3CCCC3)nc3c2c(=O)n(C)c(=O)n3C)c(C)c1,3%
CCN(CC)S(=O)(=O)c1ccc2c(c1)c(=O)c(C(=O)N1CCN(c3ccc(F)cc3)CC1)cn2C,-5%
CSc1nn(Cc2ccc(Br)cc2)c(N(C(C)=O)C(C)=O)c1S(=O)(=O)c1ccccc1,22%
CC(Oc1ccc(F)cc1)C(=O)Nc1cc(-c2ccc(F)c(F)c2)no1 (centres undefined),-5%
CCOC(=O)c1sc2ccccc2c1S(=O)(=O)N1CCN(c2ccccc2F)CC1,-4%
COc1ccc(-c2nc(C)c(CCNC(=O)c3cccs3)s2)cc1,-37%

# Laid out differently: two of the compounds above
O=C(NCc1ccc(F)cc1)c1cnc(N2CCCCC2)c2ccccc12
- miR-21 FLuc: 0%
CCC(C(=O)NCc1cccc(Br)c1)n1nc(C)c2c(C)n(-c3ccccc3)nc2c1=O (centres undefined)
- miR-21 FLuc: 20%

# Carrying on.
SMILES,miR-21 FLuc
COc1cccc(NC(=O)CSc2nc3ccc(NC(=O)c4cccs4)cc3s2)c1,21%
CCn1c(CNC(=O)C23CC4CC(CC(C4)C2)C3)nnc1SCC(=O)Nc1ccc(OC)cc1,-10%
COc1cccc(NC(=O)C2CCCN(c3nnc(-n4c(C)ccc4C)s3)C2)c1 (centres undefined),1%
CCOC(=O)c1c(Nc2cccc(O)c2)nnc(-c2ccccc2)c1-c1ccccc1,22%
CC1CCc2c(sc(NC(=O)CCCOc3ccccc3)c2C(N)=O)C1 (centres undefined),1%
CCC(=O)N1CCCc2cc(S(=O)(=O)N3CCC(C(=O)NC4CCCCC4)CC3)ccc21,7%
Cc1nn(-c2ccccc2)c2c1N(CC(=O)N1CCN(c3ccc(F)cc3)CC1)C(=O)CS2,13%
COc1ccc(OC)c(NS(=O)(=O)c2ccc(N3CCCCS3(=O)=O)cc2)c1,7%
Cc1cc(F)ccc1NC(=O)Cn1cc(S(=O)(=O)NC(C)C)c(S(=O)(=O)NC(C)C)c1,-6%
COc1ccccc1CNC(=O)c1cnc(N2CCCC2)nc1C,-7%
Cc1ccc(NC(=O)CCc2c(C)nc3c(-c4ccc(F)cc4)c(C)nn3c2C)cc1F,3%
CC(C)OCCCn1c(=O)c2ccccc2n2c(-c3ccc(F)c(F)c3)nnc12,?
COc1ccccc1/C=C/c1nc(C#N)c(NCc2ccccc2)o1,-28%
Cc1cc(C)c2c(-n3cccc3)c(C(=O)NCCc3ccccc3)sc2n1,-5%
CCCOc1ccc(-c2nonc2NC(=O)c2oc3ccc(C)cc3c2C)cc1OCCC,3%
COc1ccc(S(=O)(=O)N(Cc2nc(-c3ccc(Cl)cc3)no2)C2CCCCC2)cc1,9%
Cc1ccc(C)c(NC(=O)C(Cc2ccccc2)n2cccc2)c1 (centres undefined),?
Cc1ccc(-n2ncc3c(NCCCN4CCOCC4)ncnc32)cc1,-29%
CC(Sc1nc(=O)cc(N)n1CCc1ccccc1)C(=O)Nc1cccc(Cl)c1 (centres undefined),6%
Cc1nc2ccc(S(=O)(=O)N(CC(=O)Nc3cccc(C)c3C)Cc3ccccc3)cc2s1,-1%
Clc1ccc(-n2c(Cc3ccccc3)nnc2SCc2nc(-c3cccs3)no2)cc1,-1%
CCCCN(C)S(=O)(=O)c1ccc(NC2=NS(=O)(=O)c3ccccc32)cc1,-1%
C#CCSc1nc2sc3c(c2c(=O)n1Cc1ccccc1)CCCC3,-3%
Cc1ccc(CNC(=O)CSc2nc3ccsc3c(=O)n2-c2ccc(C(=O)O)cc2)cc1,-4%
CCn1c(=O)cc(OCC(=O)N2CCN(c3cccc(Cl)c3)CC2)c2ccccc21,3%

# 4 of the compounds above, bar-delimited.
Compound | miR-21 FLuc
Cc1nn(-c2ccccc2)c2c1N(CC(=O)N1CCN(c3ccc(F)cc3)CC1)C(=O)CS2 | 13%
COc1ccc(S(=O)(=O)N(Cc2nc(-c3ccc(Cl)cc3)no2)C2CCCCC2)cc1 | 9%
CCn1c(=O)cc(OCC(=O)N2CCN(c3cccc(Cl)c3)CC2)c2ccccc21 | 3%
CC1CCc2c(sc(NC(=O)CCCOc3ccccc3)c2C(N)=O)C1 (centres undefined) | 1%

# Continuation:
SMILES,miR-21 FLuc
Cc1cccc(Cn2cc(C(=O)c3ccccc3)c(=O)c3cc4c(cc32)OCO4)c1,-7%
COc1cc(OC)cc(C(=O)Nc2ccc3c(c2)n(C)c(=O)c(=O)n3C)c1,-1%
COc1cccc(NC(=O)c2ccc3nc(CCc4ccccc4)oc3c2)c1,-12%
C/C(=N/NC(=O)C1CCCC1)c1ccc(NC(=O)C(F)(F)F)cc1,-19%
CC(C)CC(=O)N1c2nc(C(C)C)nn2C2(CCCCC2)[C@@H]2CCCC[C@@H]21,-1%
CC(=O)N(Cc1cccnc1)c1nc2cc(C)cc(C)c2s1,-17%
COc1ccc(-n2c(/C=C/c3ccccc3F)nc3cc(OC)c(OC)cc3c2=O)cc1Cl,-2%
Cn1c(=O)c2sccc2n2c(CCC(=O)N3CCN(c4cccc(Cl)c4)CC3)nnc12,-8%
O=C(CSc1nc(O)c(C/C=C/c2ccccc2)c(=O)[nH]1)Nc1cccc(F)c1,-4%
CCN1CCN(Cc2nc3cc(NC(=O)c4cccc([N+](=O)[O-])c4)ccc3n2CC)CC1,1%
Cc1ccc(C)c(NC(=O)CSc2nncn3c2cc2sccc23)c1,0%
COc1ccc(N2CCN(c3ccc(-c4nc(-c5ccccc5C)no4)cc3[N+](=O)[O-])CC2)cc1,-1%
O=C(c1ccc(Br)cc1)N1CCN(CCc2ccncc2)CC1,0%
CCOC(=O)c1cc2c(=O)n3ccccc3nc2n(CC2CCCO2)c1=NC(=O)c1cccc(C)c1 (centres undefined),17%
Cc1ccc(Cl)cc1N1CCN(C(c2ccc(F)cc2)c2nnc(-c3ccccc3)o2)CC1 (centres undefined),-4%
O=C(NCCc1ccccc1)c1ccc2c(c1)N(Cc1ccc(F)cc1Cl)C(=O)CS2,-1%
CC(C)c1ccc2oc(-c3cc(NC(=O)c4cccnc4)ccc3Cl)nc2c1,10%
Cc1cc(C)c(NC(=O)Cn2nc(-c3ccncc3)ccc2=O)c(C)c1,9%
CC1C(=O)Nc2ccc(S(=O)(=O)N3CCCCC3)cc2NC1=O (centres undefined),5%
Cc1c(Cl)cccc1-n1ncc(C(=O)N2CCN(c3ncccn3)CC2)c1C1CCN(C(=O)OC(C)(C)C)CC1,-1%
COc1ccc(C2=C(C)C(=O)N(Cc3ccc(C(=O)Nc4cc(C)ccc4C)cc3)S2(=O)=O)cc1,14%
CCC(=O)Nc1ccc2nc(SCc3ccccc3)sc2c1,-59%
COc1ccccc1CNc1nc2ccccc2c2nc(-c3cccnc3)nn12,0%
COc1ccc(C)cc1NS(=O)(=O)c1ccc2c(c1)CCCN2C(C)=O,6%
COc1ccccc1N1CCN(c2nc3ccc(C(=O)c4ccccc4)cc3n3c(C)nnc23)CC1,0%

# Later entries
SMILES,miR-21 FLuc
CCn1c(C(=O)N2CCC(C(=O)NCCc3ccc(OC)cc3OC)CC2)cc2sccc21,?
CCOC(=O)c1cc2c(=O)n3ccccc3nc2n(CCCOC)c1=NC(=O)C(C)Oc1ccccc1 (centres undefined),5%
Cc1ccc(NC(=O)c2ccc(F)c(S(=O)(=O)N3CCc4ccccc4C3)c2)cc1F,25%
CCOc1ccc2c(c1)NC(c1cccs1)=NC(c1ccc(F)cc1)=N2,-16%
COc1cccc(Cn2c(=O)n(CC3CCC(C(=O)N4CCOCC4)CC3)c(=O)c3sccc32)c1 (centres undefined),?
COCCc1nn2c(=O)cc(COC(=O)COc3ccc(F)cc3)nc2s1,2%
Cc1ccc(NC(=O)Cn2nnc(-c3nc(-c4ccncc4)no3)c2N)cc1,-12%
COc1ccc(NC(=O)c2coc(=O)c3ccccc23)cc1OC,-8%
O=C(CSc1nc2c([nH]c3ccccc32)c(=O)n1-c1cccc(Cl)c1)NCC1CCCO1 (centres undefined),-3%
CCOc1ccc(NC(=O)c2c(C)oc3nc(C)nc(N4CCCC4)c23)cc1,-3%
Cc1noc2ncnc(Nc3ccc(F)cc3)c12,-8%

# A few values from above:
# COc1ccc(C2=C(C)C(=O)N(Cc3ccc(C(=O)NCc4ccc(C)cc4)cc3)S2(=O)=O)cc1 in miR-21 FLuc has 0%
# Cc1cccc(Cn2cc(C(=O)c3ccccc3)c(=O)c3cc4c(cc32)OCO4)c1 in miR-21 FLuc has -7%
# COc1cc2nc(NCCc3ccccc3)n3nc(-c4cccnc4)nc3c2cc1OC in miR-21 FLuc has 3%

# Arranged by SMILES length (falling): some entries from above
SMILES,miR-21 FLuc
Cc1ccc(C(C)C)c(OCCSc2nc(-c3ccccc3F)nc3cc(=O)[nH]n23)c1,-24%
Cc1nnc(SCC(=O)NCc2ccccc2F)c2nn(-c3ccc(Cl)cc3)c(C)c12,25%
COc1cccc(NC(=O)/C(C#N)=C/c2ccc(-c3ccc(C)cc3)o2)c1,4%

# An excerpt. The share of hits here may be higher or lower than overall.
